VACV Venus inh: qHTS for Stage-Specific Inhibitors of Vaccinia Orthopoxvirus: Venus Reporter Primary qHTS | Vaccinia virus Venus reporter expression, fluorescence | hit rate 0.46% among 330,000 | Potency, µM (series often up to 36.5 µM), inactives show at the highest dose activity change, negative = inhibition, hits mostly inhibitors; active means well fitted inhibition curve with a large enough effect; inconclusive means small, poorly fitted or top-dose-only effect; inactive means no such curve, though single readings can be large or run the other way; tested in A549 cells; note: nearly all actives have a fitted effect of over 30% in size; inactives centre near -10
VACV mCherry inh: qHTS for Stage-Specific Inhibitors of Vaccinia Orthopoxvirus: mCherry Reporter Primary qHTS. Vaccinia virus mCherry reporter infection, fluorescence; about a quarter of the inactives have no number. Potency, µM (doses to about 36.5 µM), for inactives: at the top dose activity change, negative = inhibition, actives largely listed as inhibitors. hit rate 0.63% among 310,000. AID 720579, 2013; active = well fitted inhibition curve with a large enough effect; inconclusive = small, poorly fitted or top-dose-only effect; inactive = no such curve, though single readings can be large or run the other way; tested in A549 cells; note: nearly all actives have a fitted effect of over 35% in size; inactives centre near -10
* = called active by the depositor; i = inactive; u = inconclusive; x = not tested or not shown; & = joins results of further samples; [ ] = dose if it differs, or a comment. % is set by controls: 0 for no effect and ±100 for the full control effect; potency is the fitted concentration of half-maximal effect.

Sample of the layout, four compounds:
SMILES	VACV Venus inh	VACV mCherry inh
CCCCn1c(N)c(N(CC(C)C)C(=O)c2ccc(S(=O)(=O)N(CC)c3ccccc3)cc2)c(=O)[nH]c1=O	0%	-17%
Cc1cccc(Cn2c(=O)n(Cc3ccc4c(c3)OCO4)c(=O)c3oc4ccccc4c32)c1	-3%	-2%
CCn1c(=O)n(CC)c2cc(N)ccc21	-15%	-1%
CCOc1cc(N2CCOCC2)c(OCC)cc1NC(=O)c1ccc(C)s1	-19%	-17%

All compounds of this part, from the first entry:
SMILES	VACV Venus inh	VACV mCherry inh
CCCCn1c(N)c(N(CC(C)C)C(=O)c2ccc(S(=O)(=O)N(CC)c3ccccc3)cc2)c(=O)[nH]c1=O	0%	-17%
Cc1cccc(Cn2c(=O)n(Cc3ccc4c(c3)OCO4)c(=O)c3oc4ccccc4c32)c1	-3%	-2%
CCn1c(=O)n(CC)c2cc(N)ccc21	-15%	-1%
CCOc1cc(N2CCOCC2)c(OCC)cc1NC(=O)c1ccc(C)s1	-19%	-17%
COc1cc(-c2ccc(Nc3ccccc3C(=O)O)c(OC)c2)ccc1Nc1ccccc1C(=O)O	-1%	i
O=C(C[n+]1cccc(Br)c1)c1ccc(I)cc1	-9%	i
Cc1ccc2c(/C=C/c3ccc(N(C)C)cc3)ccnc2c1C	-1%	-7%
Cc1nc(SCc2ccc(Cl)c(Cl)c2)ncc1C(=O)O	-9%	-9%
Cn1nc(C(=O)Nc2cc(Cl)ccc2N2CCCC2)c2ccccc2c1=O	-14%	-26%
Cc1cc(C(=O)N2CCCC(N3CCN(c4cccc(C(F)(F)F)c4)CC3)C2)no1 (stereo unspecified)	-23%	-12%
Cc1nnc(SCC(=O)Nc2cccnc2Cl)s1	1%	-10%
COC(=O)C1C(c2ccccc2)C(C(=O)O)C1c1ccccc1 (stereo unspecified)	-14%	-6%
COc1ccc(C=O)c(OC)c1	-1%	i
CSc1ccc(CN2CCC(C)(Oc3ccc(CC#N)cc3)C2)cc1 (stereo unspecified)	-6%	-9%
CN=C(c1ccc([N+](=O)[O-])cc1)N1CCCCC1	-8%	i
Cc1ccc2oc(=O)n(Cc3ccccc3Cl)c2c1	-7%	-6%
COc1ccccc1-n1c(=S)[nH]c2c(sc(=S)n2-c2ccccc2C)c1=O	-11%	-4%
COc1cccc(CNC(=O)C2CCCN(S(=O)(=O)c3cn(C)cn3)C2)c1 (stereo unspecified)	-5%	-6%
CN(Cc1ccc2c(c1)CN(C(=O)c1cccc(N(C)C)c1)CCO2)Cc1cc(C2CC2)n[nH]1	3%	5%
O=C(Nc1ccc(Br)cc1F)c1cc(S(=O)(=O)NC2CCCC2)ccc1F	-24%	-18%
Cc1oc2c(C)c3oc(=O)c(CCC(=O)NCCCN4CCOCC4)c(C)c3cc2c1C	-17%	-14%
CC(C)CC(c1nnnn1CC1CCCO1)N1CCN(c2nc3ccccc3s2)CC1 (stereo unspecified)	-5%	x
CCC(C)[C@H](NC(=O)N1CC(=O)Nc2ccccc21)C(=O)Nc1nccs1 (stereo partly specified)	-20%	i
CCCCCc1ccc(-c2cn(CN3C(=O)c4ccccc4C3=O)nn2)cc1	-16%&-16%	i
Cc1ccc(C(=O)Nc2ccc3c(c2)CCC3)cc1S(=O)(=O)N1CCOCC1	-21%	i
CCO/C=C1/C(=O)N(c2ccc(OC)cc2)C(=O)c2ccccc21	u	u
Cc1cc(OC(=O)c2ccc(S(=O)(=O)N3CCOCC3)cc2)c([N+](=O)[O-])c(=O)[nH]1	-19%	-2%
COc1ccccc1OC(=O)c1cc(Cl)nc2ccccc12	0%	i
Cc1ccc(O)c(NC(=S)NC(=O)c2ccccc2Cl)c1	-1%	u
COc1cccc(CN2CCN(S(=O)(=O)c3ccc(Br)cc3)CC2)c1	-4%	-3%

Next part (2 carried over from the part before).
SMILES	VACV Venus inh	VACV mCherry inh
Cc1ccc(O)c(NC(=S)NC(=O)c2ccccc2Cl)c1	-1%	u
COc1cccc(CN2CCN(S(=O)(=O)c3ccc(Br)cc3)CC2)c1	-4%	-3%
CCOC(=O)CSc1nnc(-c2ccc(NS(=O)(=O)c3ccc(C)cc3)cc2)o1	-7%	-9%
COc1ccc(/C=N/Nc2cc(C)nc(N)n2)cc1	-25%	-24%
CCC(COC(=O)NC)NC(=O)Oc1ccccc1 (stereo unspecified)	-18%	x
COc1cc(/C=C/c2nc3ccccc3nc2/C=C/c2cc(OC)c(OC)c(OC)c2)cc(OC)c1OC	-18%	21%
CCOc1ccccc1-c1nc(C(N)=O)c2c(n1)n(-c1ccc3c(c1)OCO3)c(=O)n2C	8%	11%
CCN(CC(=O)Nc1ccc(NC(C)=O)cc1)C(=O)CN1C(=O)NC2(CCCC2)C1=O	-14%	i
CSc1ncccc1C(=O)N(C)CC(=O)Nc1ccc(Cl)cc1	-23%	i
COc1ccc(C(=O)C2CN(C)CC2C(=O)c2ccc(OC)cc2)cc1 (stereo unspecified)	-26%	x
O=C(NCCc1ccco1)C(=O)NCC1CCCN1S(=O)(=O)c1ccccc1 (stereo unspecified)	-22%	u
N=C1CCCC1C(=S)SCCC(N)=O (stereo unspecified)	-8%	i
Cc1ccc2occ(CC(=O)N(Cc3ccccc3Cl)C3CCS(=O)(=O)C3)c2c1 (stereo unspecified)	-8%	-3%
CCOC(=O)C1C(C(=O)NN)C1C(=O)Nc1ccccc1 (stereo unspecified)	-5%	-14%
C[C@H]1CN([C@@H](C)CO)C(=O)CCCn2nncc2CO[C@@H]1CN(C)Cc1ccc(-c2ccccc2)cc1	-27%	-8%
Cc1ccc(NC(=O)Cn2c(=O)n(-c3ccc(Cl)c(Cl)c3)c(=O)c3c(C)c(C)sc32)c(C)c1	6%	-15%
COc1ccc(N2C(=O)CSC2c2ccncc2)cc1 (stereo unspecified)	0%	-13%
CN(C(=O)c1ccc(NC(=O)Cc2ccc(NC(=O)C3CCN(C(=O)C4CCCCC4)CC3)cc2)cc1)C1CCCC1	-8%	-14%
CC1(C)CC2CC(C)(CN2S(=O)(=O)c2ccc(C(=O)Nc3ccc(Cl)c(S(=O)(=O)N4CCOCC4)c3)cc2)C1 (stereo unspecified)	-12%	-11%
CC(=O)Nc1ccc(NC(=O)C2CCCN(c3nnc(-n4cccc4)s3)C2)cc1 (stereo unspecified)	6%	-13%
COc1ccc(CCNC(=O)c2ccc3c(c2)SC2=NS(=O)(=O)CCN23)cc1	-11%	-16%
COc1ccc(CCNC(=O)c2nc3ncccn3n2)cc1OC	-3%	-12%
C[C@@H]1CN([C@@H](C)CO)C(=O)c2cc(NC(=O)c3ccncc3)ccc2O[C@@H](C)CCCCO[C@@H]1CN(C)C(=O)Cc1ccccc1	-9%	-20%
CN(c1ccccc1)S(=O)(=O)c1ccc(NC(=O)c2ccccc2)cc1	-16%	-7%
CCCCCC(=O)N1CC2(C)CN(C(=O)CCCCC)CC(C)(C1)C2=O	-8%	-13%
CCOC(=O)C1=CCN(S(=O)(=O)c2ccccc2Br)C1c1ccc(Br)cc1 (stereo unspecified)	3%	33%[activator]
Cc1ccc(CNc2ccc(-c3nc(-c4ccncc4)no3)cc2[N+](=O)[O-])cc1	-15%	-5%
CC(=O)c1cccc(NC(=O)CN(c2cc(C)cc(C)c2)S(=O)(=O)c2c(C)noc2C)c1	1%	-7%
CCCn1c(N)c(Sc2ccccc2)c(=O)n(CCC)c1=O	-8%	-12%
O=c1cc(O)c2ccccc2n1Cc1ccccc1Cl	-13%	i
S=C(NCCc1ccccc1)N1CCN(C(=S)NCCc2ccccc2)CC1	-4%	-12%
Clc1ccc(SCc2csc(N3CCOCC3)n2)cc1	-15%	-3%
Cc1ccc(C(=O)Nc2nc(=O)n(C(=O)CC(C)C)s2)cc1	-2%	-12%
CN(C)C(/C=C/Nc1ccc(F)cc1)=C(C#N)C#N	2%	-8%
O=C(CC(=O)N/N=C/c1ccc(O)cc1)N/N=C/c1ccc(O)cc1	6%	-7%
O=C(Cn1cc(C(=O)C(=O)N2CCOCC2)c2ccccc21)Nc1cccc(C(F)(F)F)c1	-15%	4%
FC(F)(F)c1nc2ccccc2nc1N/N=C/c1c(Cl)cccc1Cl	-11%	x
CN(CC(=O)O)c1ccc(S(=O)(=O)N2CCOCC2)cc1[N+](=O)[O-]	-8%	-6%
COc1ccc(S(=O)(=O)N/N=C(/C)c2ccncc2)c(OC)c1	-11%	-11%
COCCCNC(=O)Cn1c(=O)n(CCCCCC(=O)NCc2ccc3c(c2)OCO3)c(=O)c2sccc21	-6%	i
CCCCOCCCNC(=O)CN1C(=O)c2ccccc2C1=O	-9%	i
CC(C)OC(=O)Cn1cc(C#N)c2ccccc21	-5%	-2%
O=C(CN1CCN(C(=O)c2ccc(-c3nc4ccccc4s3)o2)CC1)Nc1ccccc1Cl	6%	3%
CCOc1ccc(N(CC(=O)N2CCN(c3ccccc3OC)CC2)S(=O)(=O)c2ccc(F)cc2)cc1	-30%	u
Cc1ccc(NS(=O)(=O)c2cc(Br)cc3c2N(C(=O)C2CC2)CC3)cc1C	u	u
CCOC(=O)C(NC(=O)CC)(Nc1ccccc1)C(F)(F)F (stereo unspecified)	-10%	-12%
CCOC(=O)C1CCN(C(=O)Cn2nc(C)n3c(cc4c(OC)cccc43)c2=O)CC1	-13%	-15%

Looked up above.
VACV Venus inh result of `CCCCOCCCNC(=O)CN1C(=O)c2ccccc2C1=O` reads -9%
VACV mCherry inh result of `O=C(CC(=O)N/N=C/c1ccc(O)cc1)N/N=C/c1ccc(O)cc1` reads -7%
VACV mCherry inh result of `O=C(Cn1cc(C(=O)C(=O)N2CCOCC2)c2ccccc21)Nc1cccc(C(F)(F)F)c1` reads 4%
VACV Venus inh result of `CC(C)OC(=O)Cn1cc(C#N)c2ccccc21` reads -5%

Going on with the list:
SMILES	VACV Venus inh	VACV mCherry inh
CCCCCNC(=O)c1ccc2c(c1)ncn2-c1cccc(C)c1	-8%	-11%
O=C(Nc1nnc(SCc2ccccc2)s1)c1cccc([N+](=O)[O-])c1	-17%	-17%
CCCC[N+]1(C)C2CC(OC(=O)C(CO)c3ccccc3)CC1C1OC12 (stereo unspecified)	-8%	-8%
CCOc1ccccc1CNCCOC	-1%	i
O=C(CSc1nc2ccccc2s1)N/N=C/c1ccc(C(=O)O)cc1	-7%	-1%
CCOc1ccc(S(=O)(=O)Nc2ccc3c(c2)n(C)c(=O)n3C)cc1	-5%	i
CCOc1ccc(CNC(=O)c2ccc3c(c2)c(C)c(C)n3Cc2ccccc2)cc1OC	-19%	-18%
CC1=C(C(=O)NC2CCCCC2C)C2(CCC(C)CC2)OC1=O (stereo unspecified)	-8%	i
CCOc1ccc(N2CC(c3nc4ccccc4n3Cc3cccc(Cl)c3)CC2=O)cc1 (stereo unspecified)	-2%	-20%
Fc1cccc(Cl)c1/C=N/Nc1c(Cl)cncc1Cl	-20%	-25%
CC(C)(C)c1o[nH]c(=O)c1CC(N)C(=O)O (stereo unspecified)	-8%	-15%
CCOC(=O)[C@]12CCC=C1N(Cc1ccc3c(c1)OCO3)C(=O)[C@H](CC(=O)N1CCN(C(=O)c3ccco3)CC1)C2	-11%	30%
OC1CN=C2C=CC=CN2C1 (stereo unspecified)	9%	x
COc1ccc2cc1Oc1ccc(cc1)C[C@H]1c3cc(c(OC)cc3CCN1C)Oc1c(OC)c(OC)cc3c1[C@H](C2)N(C)CC3	-17%&-11%&-5%&-17%	-5%&0%&-16%&-23%
O=C(Nc1ccccc1)c1cccn(Cc2ccccc2)c1=O	-9%	i
COc1ccccc1CNC(=O)CC(c1ccc(C)cc1)N1Cc2ccccc2C1=O (stereo unspecified)	-10%	-7%
O=C(CSc1ccc(-c2ccco2)nn1)N1CCCCC1	-10%	i
CC1CCCN(c2ccc(C(=O)NCc3ccc4c(c3)OCO4)cc2[N+](=O)[O-])C1 (stereo unspecified)	-6%	-17%
CCNC(=O)c1cc2c(c(-c3cccc(-c4cncnc4)c3)n1)[C@@H](CCO)N(C(C)=O)C2	-8%	-12%
COc1ccc(C2CC(=O)c3cc(-c4nc(-c5cccc([N+](=O)[O-])c5)cs4)c(=O)n(-c4ccccc4N)c3C2)cc1 (stereo unspecified)	13%	17%
Cc1ccc(NS(=O)(=O)c2c(C(=O)N3CCC(C)CC3)c(C)n(C)c2C)cc1Cl	-9%	-17%
O=C1C2CCN(CC2)C1Cc1ccc(OCCOc2ccccc2)cc1 (stereo unspecified)	-25%	16%
CCn1c(=O)c(C(=O)CN2CCN(Cc3ccc4c(c3)OCO4)CC2)c(N)n(Cc2ccccc2)c1=O	-15%	i
CN(CCO)c1c2c(nc3cc(-c4cccc(F)c4)nn13)CCCC2	-26%	-10%
O=C(NCCC1=CCCCC1)c1ccc2c(c1)N(Cc1cccc(Cl)c1)C(=O)c1ccccc1S2(=O)=O	-15%	-11%
COCCCNc1nc(-c2ccncc2)nc2ccccc12	-11%	-16%
CC1SCC(=O)N(CC(=O)Nc2ccc3c(c2)OCCO3)C1=O (stereo unspecified)	-2%	-10%
CCc1cccc(CC)c1NC(=O)c1cccc(N)c1	-6%	-6%
CCCNC(=O)C1(C)CCN(Cc2ccc(-c3ccccc3)o2)C1 (stereo unspecified)	-5%	-11%
CCOC(=O)C1=C[C@@H](C)N(S(=O)(=O)c2ccc(C)cc2)[C@H]1c1ccccc1	-9%	24%
O=C(CCn1c2c(c3ccccc31)CCCC2)NNC(=O)c1ccccc1[N+](=O)[O-]	-9%	-28%
N#Cc1ccc(-c2cccs2)nc1SCc1cccnc1	-9%	-29%
NC(=O)c1oc2ccccc2c1NC(=O)C1CCCCC1	-10%	i
CCN(Cc1ccncc1)C(=O)c1ccc(C)c(S(=O)(=O)N2CCCCC2)c1	-9%	i
